Bioassay records as filed in PubChem.
RGS16-Gao – modulates binding between human RGS16 and Galphao | 220,000 tested, 0.38% active | O15492+P09471 | binding response (% of control), % at 10 µM | bead-based flow cytometry RGS16-Galphao binding, fluorescence; actives lie on both sides;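 active = below 25% or above 175%, edge rows of some plates excepted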;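 also: Galphao activated by GDP with aluminum fluoride before binding; 100% = wells without compound and 0% = beads without RGS; some results beyond the cut were filed as inactive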
Target sequence (O15492 whole entry, looked up): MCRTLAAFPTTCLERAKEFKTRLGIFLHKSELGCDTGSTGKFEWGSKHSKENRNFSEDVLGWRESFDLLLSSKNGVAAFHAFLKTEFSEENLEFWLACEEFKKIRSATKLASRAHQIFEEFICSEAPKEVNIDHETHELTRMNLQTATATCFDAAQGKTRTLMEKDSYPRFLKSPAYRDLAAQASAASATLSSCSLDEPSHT
Target sequence (P09471 whole entry, looked up): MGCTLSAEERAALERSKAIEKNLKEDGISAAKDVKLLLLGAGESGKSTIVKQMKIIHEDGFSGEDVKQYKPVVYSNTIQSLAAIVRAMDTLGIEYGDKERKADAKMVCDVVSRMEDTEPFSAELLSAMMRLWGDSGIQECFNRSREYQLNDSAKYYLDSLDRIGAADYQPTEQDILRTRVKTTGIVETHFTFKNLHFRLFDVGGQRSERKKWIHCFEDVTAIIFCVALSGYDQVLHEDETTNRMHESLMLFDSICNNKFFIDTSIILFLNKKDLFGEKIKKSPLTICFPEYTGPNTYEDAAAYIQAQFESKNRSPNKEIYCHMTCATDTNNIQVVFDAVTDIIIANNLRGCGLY
GALR2 ag – GALR2 (human) receptor agonism; O43603; GALR2-expressing cells, agonist activation read-out; activation, %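 (tested at 5 µM)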; 140,000 tested, 0.48% active;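 active = above mean plus 3 SD of all compounds, about 5% in these data, not always enough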;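 also: 0% = vehicle buffer wells and 100% = reference agonist at full effect; tested in CHO reporter cells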
Target sequence (O43603 whole entry, looked up): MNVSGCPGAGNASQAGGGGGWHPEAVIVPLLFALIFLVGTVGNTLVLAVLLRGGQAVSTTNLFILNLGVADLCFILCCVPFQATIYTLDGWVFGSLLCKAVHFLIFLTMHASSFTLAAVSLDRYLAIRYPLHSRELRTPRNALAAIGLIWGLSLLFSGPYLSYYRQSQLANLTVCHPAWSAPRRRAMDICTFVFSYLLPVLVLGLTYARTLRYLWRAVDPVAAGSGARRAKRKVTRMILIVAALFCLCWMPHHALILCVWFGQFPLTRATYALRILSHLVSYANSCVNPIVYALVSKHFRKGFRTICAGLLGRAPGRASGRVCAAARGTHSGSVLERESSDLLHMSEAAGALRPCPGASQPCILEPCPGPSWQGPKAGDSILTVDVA
Insulin prom inh – TRM-6 insulin promoter activity inhibition; inhibition, % at 2 µM; 130,000 tested, 0.9% active; TRM-6 cells (human fetal islet line), insulin promoter-eGFP reporter, imaging; reporter expression induced with tamoxifen;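 active = inhibition above the mean plus 3 SD, with well images judged a real hit on visual review, cut at about 60% in these data, passing the limit was not always enough; inconclusive = inhibition over the cutoff but images rejected on review; inactive = inhibition not above the cutoff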
PKD1 inh – blocks activity of human protein kinase D1; Q15139; PKD1 kinase fluorescence polarization assay; inhibition, %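 (about 10 µM by stock and volumes)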; 200,000 tested, 0.056% active; AID 797;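 active = inhibition of 50% or more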;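 also: controls were vehicle for no effect and a reference inhibitor for full effect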
HSV replic up – increases HSV replication in cells | HSV replication augmentation in cells, fold increase | 220,000 tested, 0.005% active | AID 1956 | maximum fold increase;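 active = peak rise of 1.5-fold or more in the series; inconclusive = self-fluorescent or not available for retest; tested in PC3 cells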;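 also: first round at 10 µM; read as green reporter fluorescence; hits show the peak of a series up to 25 µM; 1 = signal of infected wells without compound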
Insulin prom inh cell count – further read-out of Insulin prom inh, marked with its call; normalized cell count, %; measured here: cell count, toxicity; reference of the scale not given here;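 cells exposed to compound for 48 h; stained nuclei by imaging scaled within each plate; lower means fewer cells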
HSV replic up primary fold – recorded beside HSV replic up, whose call it bears; fold increase; compound at 10 µM; measured here: primary screen fold increase 10 uM; tested in PC3 cells;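 GFP signal in the first replicate; 1 = infected wells without compound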
* = called active by the depositor; i = inactive; ? = inconclusive; . = not tested or not shown. Hits appear at their usual frequency, and some 1.1% of all compounds hit somewhere here.

SMILES	RGS16-Gao	GALR2 ag	Insulin prom inh	Insulin prom inh cell count	PKD1 inh	HSV replic up	HSV replic up primary fold
N#Cc1ccc(-c2ccc(Cl)cc2)nc1Oc1ccc(F)cc1	102	-1.2	.	.	-3	i	0.89
COc1cccc(CN2CCCC(C(=O)N3CCCCC3)C2)c1OC (centres undefined)	99	-0.5	-65	187	-3	i	0.77
COC(=O)c1ccc(CSc2cc(C)c3cc(C)cc(C)c3n2)o1	98	.	.	.	-1	i	0.76
COc1cc(/C=C2\SC(c3ccc(C)cc3)=NC2=O)cc(OC)c1O	79	-2.0	4	146	-16	i	0.74
Cc1ccc(C)c(N2C(=O)c3ccc(C(=O)OCC(=O)c4c(N)n(C)c(=O)n(C)c4=O)cc3C2=O)c1	82	0.1	17	79	10	i	0.94
Cc1ccc(-n2c(=O)[nH]c3cc(C(=O)NC4CCN(Cc5ccccc5)CC4)ccc3c2=O)cc1	101	-2.9	.	.	3	i	0.87
Cc1ccc(S(=O)(=O)N(C)CC(=O)Nc2ccncc2)cc1	101	-0.1	-16	119	-1	i	1.1
CC1=C(C#N)C(c2ccccc2)C2=C(N1)c1ccccc1C2=O (centres undefined)	99	-0.5	-121	16	-8	i	0.58
O=C(CCN1C(=O)C2CC=CCC2C1=O)N1CCN(c2ccccn2)CC1 (centres undefined)	96	-0.9	6	95	2	i	1
Cc1nc(-c2ccc(Cl)cc2)sc1C1(C)CC(c2cccc([N+](=O)[O-])c2)=NO1 (centres undefined)	95	.	.	.	.	i	0.79
COc1cccc(OCc2nnc(SCC(=O)N3c4ccccc4Sc4ccc(Cl)cc43)o2)c1	102	-2.8	33	144	-19	i	0.95
CC(=O)CCc1ccc(OCCCCN2CCC(Cc3ccccc3)CC2)cc1	105	.	-35	84	-4	i	0.81
CC1CCCC(NC(=O)COC(=O)/C=C/c2ccc3c(c2)OCO3)C1C (centres undefined)	109	-0.8	32	64	-2	i	1.1
CCn1cnc2sc(C(=O)Oc3ccc(Br)cc3)c(C)c2c1=O	109	.	0	102	-1	.	.
CCSc1n[nH]c(=S)s1	102	.	-7	92	-7	i	0.99
O=C(N/N=C1\CCCc2ccccc21)c1ccccc1[N+](=O)[O-]	113	-0.9	33	125	-3	i	0.84
O=C(Oc1c(CN2CCOCC2)cc(Cl)c2cccnc12)c1ccccc1Br	99	.	.	.	.	i	0.71
CC1=CC(C)(C)Nc2ccc(OC(=O)C(Cc3ccccc3)N3C(=O)c4ccccc4C3=O)cc21 (centres undefined)	101	0.0	30	87	-1	i	1.2
NC(=O)CN1C(=O)C2C3c4ccccc4C(c4ccccc43)C2C1=O (centres undefined)	93	-0.9	-39	91	6	i	0.93
O=C(NCc1ccco1)/C(=C/c1cccc(C(F)(F)F)c1)c1nc2ccccc2[nH]1	103	-0.6	10	93	-2	i	1

Reprinted at random: 2 compounds from above, in no set order.
SMILES	RGS16-Gao	GALR2 ag	Insulin prom inh	Insulin prom inh cell count	PKD1 inh	HSV replic up	HSV replic up primary fold
CC1CCCC(NC(=O)COC(=O)/C=C/c2ccc3c(c2)OCO3)C1C (centres undefined)	109	-0.8	32	64	-2	i	1.1
COc1cccc(OCc2nnc(SCC(=O)N3c4ccccc4Sc4ccc(Cl)cc43)o2)c1	102	-2.8	33	144	-19	i	0.95

The listing continues.
SMILES	RGS16-Gao	GALR2 ag	Insulin prom inh	Insulin prom inh cell count	PKD1 inh	HSV replic up	HSV replic up primary fold
N#Cc1cccc(N=Cc2c(O)ccc3ccccc23)c1	99	-0.6	11	85	-9	i	0.97
O=C1CC(c2ccccc2)CC(O)=C1C=Nc1ccccc1O (centres undefined)	108	.	-5	196	-8	i	0.77
CCn1c(SCC(=O)c2ccc(C)cc2)nnc1-c1ccoc1C	111	-2.4	21	54	-13	i	0.92
O=C(CSc1nc2[nH]ncc2c(=O)[nH]1)NCCc1ccccc1	101	.	.	.	-1	i	0.99
CC(C)=NNC1=NC(C)(C)Cc2ccccc21	102	.	.	.	.	i	1.1
CCCn1c(CCC(=O)O)ccc1-c1ccc(OC)cc1	92	2.5	18	87	-6	i	0.96
O=C(N/N=C/c1ccc(O)c(O)c1)C1c2ccccc2Oc2ccccc21	86	-2.1	3	115	3	i	0.84
CC(C)C(C(=O)Nc1ccc(S(N)(=O)=O)cc1)N1C(=O)c2ccccc2C1=O (centres undefined)	100	.	.	.	0	i	1
Cc1cccc(C(=O)NC(=S)NNC(=O)Cc2ccccc2)c1	92	-1.1	14	132	-6	i	0.96
CCOC(=O)C1=C(C)Nc2ccccc2S1	100	.	.	.	.	i	1.1
Cc1ccc(C(=O)Nc2nnc(COc3ccccc3)s2)cc1	99	.	.	.	-2	i	0.93
CN(CC(=O)NCCc1ccc(F)cc1)Cc1cccs1	112	.	18	219	-6	i	1
FC(F)(F)c1ccc(/C=N/N2CCN(Cc3ccccc3)CC2)cc1	104	-0.1	-28	137	-3	i	0.98
O=S(=O)(c1ccccc1)c1nc(NC2CC2)sc1Cl	112	.	0	115	-9	i	0.96
O=C1CC(NCC2CCCO2)C(=O)N1c1ccc(F)cc1 (centres undefined)	100	.	42	118	2	i	0.91
CC(CCCCC(=O)Nc1ccc(C(F)(F)F)cc1)NCCc1cnc[nH]1 (centres undefined)	102	.	.	.	.	i	0.7
CCOC(=O)/C=C1\Nc2ccccc2OC1=O	102	0.2	.	.	11	i	1.2
CCN(CC)c1ccc(C2C(C(=O)OC)=C(C)NC(C)=C2C(=O)OC)cc1	102	-1.3	.	.	10	i	0.82
CCOP(=O)(c1ccccc1)c1nc(-c2ccccc2C)oc1N1CCCCC1 (centres undefined)	103	-0.6	.	.	-7	i	0.95
CCOC(=O)c1cc2c(=O)n3ccccc3nc2n(Cc2ccco2)c1=NC(=O)c1ccc(OC)cc1OC	101	.	53	125	1	i	1
CC1C2NC(=O)N(Cc3ccccc3)C1(C)Oc1ccccc12 (centres undefined)	103	.	.	.	-2	i	0.92
CC(OC(=O)c1snc(C(=O)NC2CCCCC2)c1N)C(=O)NC(C)(C)C (centres undefined)	102	-1.0	38	151	0	i	0.97
COc1ccc(/C=N/n2c(=O)[nH]c3c([nH]c4ccc(Cl)cc43)c2=O)cc1CN1CCCCC1	101	.	.	.	.	i	1.1
CSc1ccc(Cl)c(C(=O)Nc2nccs2)c1	100	.	.	.	.	i	1
CCOC(=O)c1cccc(NC(=O)CNS(=O)(=O)c2cccs2)c1	101	-2.1	33	120	-5	i	1.1
CN(C(=O)CSc1nnc(-c2ccc(Cl)cc2)n1CC1CCCO1)C1CCS(=O)(=O)C1 (centres undefined)	93	.	.	.	2	i	0.98
COc1cc(OC)c(CNC2CCCCCC2)cc1Br	107	.	0	39	-3	i	1
CC1(C)C(=O)Nc2ccccc2N1C(=O)CN1C(=O)NC(CCc2ccccc2)C1=O (centres undefined)	99	.	-47	114	-1	i	0.95
CC1CCCN(CCC(=O)Nc2ccc(Br)cc2)C1 (centres undefined)	100	-0.6	-292	59	-3	i	0.91
CCC(C)NC(=O)CSc1nnc(-c2ccc(C(C)(C)C)cc2)n1C (centres undefined)	103	-2.3	.	.	-9	i	0.92
Cn1c(=O)oc2cc(S(=O)(=O)NCCC(=O)N3CCc4ccccc43)ccc21	91	-3.4	-57	153	4	.	.
Cc1noc(C)c1COC(=O)c1cnc(Cl)c(Cl)c1	104	.	33	100	-3	i	0.94
O=C(Nc1ccc(C(F)(F)F)cc1)c1cnc(N2CCN(c3ccccn3)CC2)c2ccccc12	97	.	-41	105	-6	i	0.88
Cc1cc(NC(=O)CN2CCC(O)(c3cccc(F)c3)CC2)no1	97	5.7	-19	33	-7	i	0.95
COc1ccc(-n2nc3ccccc3n2)cc1	107	1.2	-21	92	0	i	0.94
COC(=O)c1ccccc1N=Nc1c(C)noc1C	99	.	.	.	.	i	1
COc1ccc(-c2nnc(CSc3nnc(-c4ccncc4)n3C3CCCCC3)o2)cc1OC	102	0.3	-21	123	-3	i	1
CNc1c(C(=O)O)ccc2c1C(=O)c1ccccc1C2=O	72	-0.9	.	.	29	i	1.1
CCCOC(=O)CCNc1n[nH]c(=O)[nH]c1=O	96	-2.4	26	75	-13	i	0.76
Cc1ccc2nc(SCC(=O)Nc3cccc(S(=O)(=O)N(C)C)c3)[nH]c2c1	98	-1.2	-26	111	5	i	0.79
CCOc1ccc(S(=O)(=O)N2Cc3ccccc3CC2C(=O)O)cc1 (centres undefined)	97	.	.	.	.	i	0.97
CC1(C)Cc2nc(Cl)c(C(N)=O)cc2CO1	102	.	.	.	.	i	1.2
Cc1ccc(C)c(N(C)S(=O)(=O)c2cccc3nsnc23)c1	100	-0.8	-62	72	-5	i	0.97
O=C(Nc1cccc(Cl)c1)N(CCCN1CCOCC1)Cc1ccccc1F	100	-0.8	36	73	4	i	0.95
CCN(CC)C(=O)Cn1cc(C(=O)C2CC2)c2ccccc21	105	.	-27	109	0	i	0.98
O=C(NCc1ccc(F)cc1)c1ccc(Br)o1	103	.	.	.	2	i	1.1
CN(CC(=O)NCc1ccco1)S(=O)(=O)c1cccc2cccnc12	98	-1.4	.	.	1	i	1
COc1cccc2c1C(=O)C=C(C)C2=O	95	-0.1	19	94	-9	?	.
COc1ccc(CNC(=O)COC(=O)c2ccc(F)c(S(=O)(=O)N3CCCCC3)c2)cc1OC	105	.	.	.	.	i	0.95
O=C(c1ccc2c3c(cccc13)CC2)C1CCCN(Cc2ccccn2)C1 (centres undefined)	104	.	.	.	-1	i	1

By substructure: the compounds so far containing fluorine (eleven)
SMILES	RGS16-Gao	GALR2 ag	Insulin prom inh	Insulin prom inh cell count	PKD1 inh	HSV replic up	HSV replic up primary fold
N#Cc1ccc(-c2ccc(Cl)cc2)nc1Oc1ccc(F)cc1	102	-1.2	.	.	-3	i	0.89
O=C(NCc1ccco1)/C(=C/c1cccc(C(F)(F)F)c1)c1nc2ccccc2[nH]1	103	-0.6	10	93	-2	i	1
CN(CC(=O)NCCc1ccc(F)cc1)Cc1cccs1	112	.	18	219	-6	i	1
FC(F)(F)c1ccc(/C=N/N2CCN(Cc3ccccc3)CC2)cc1	104	-0.1	-28	137	-3	i	0.98
O=C1CC(NCC2CCCO2)C(=O)N1c1ccc(F)cc1 (centres undefined)	100	.	42	118	2	i	0.91
CC(CCCCC(=O)Nc1ccc(C(F)(F)F)cc1)NCCc1cnc[nH]1 (centres undefined)	102	.	.	.	.	i	0.7
O=C(Nc1ccc(C(F)(F)F)cc1)c1cnc(N2CCN(c3ccccn3)CC2)c2ccccc12	97	.	-41	105	-6	i	0.88
Cc1cc(NC(=O)CN2CCC(O)(c3cccc(F)c3)CC2)no1	97	5.7	-19	33	-7	i	0.95
O=C(Nc1cccc(Cl)c1)N(CCCN1CCOCC1)Cc1ccccc1F	100	-0.8	36	73	4	i	0.95
O=C(NCc1ccc(F)cc1)c1ccc(Br)o1	103	.	.	.	2	i	1.1
COc1ccc(CNC(=O)COC(=O)c2ccc(F)c(S(=O)(=O)N3CCCCC3)c2)cc1OC	105	.	.	.	.	i	0.95
